VACV Venus inh – qHTS for Stage-Specific Inhibitors of Vaccinia Orthopoxvirus: Venus Reporter Primary qHTS; AID 720580, 2013; Vaccinia virus Venus reporter expression, fluorescence; 0.46% of 330,000 active; Potency, µM (highest dose often 36.5 µM), inactives show at the top dose activity change, negative = inhibition, actives largely listed as inhibitors; active means well fitted inhibition curve with a large enough effect; inconclusive means small, poorly fitted or top-dose-only effect; inactive means no such curve, though single readings can be large or run the other way; tested in A549 cells; note: nearly all actives have a fitted effect of over 30% in size; inactives centre near -10
VACV mCherry inh – qHTS for Stage-Specific Inhibitors of Vaccinia Orthopoxvirus: mCherry Reporter Primary qHTS. Vaccinia virus mCherry reporter infection, fluorescence; about a quarter of the inactives have no number. Potency, µM (doses to about 36.5 µM), for the others: top-dose activity change, negative = inhibition, most hits filed as inhibitors. 0.63% of 310,000 active; active = well fitted inhibition curve with a large enough effect; inconclusive = small, poorly fitted or top-dose-only effect; inactive = no such curve, though single readings can be large or run the other way; tested in A549 cells; note: nearly all actives have a fitted effect of over 35% in size; inactives centre near -10
* hit, by the source's call; i = inactive; ? = inconclusive; / = not tested or not shown; & = joins results of further samples; [ ] = another dose, or the depositor's remark. % is set by controls: 0 for no effect and ±100 for the full control effect; potency is the fitted concentration of half-maximal effect.

Results follow in this order: VACV mCherry inh	VACV Venus inh
N=C1/C(=C\c2ccc(-c3cccc(C(=O)O)c3)o2)C(=O)N=C2SC=C(c3ccccc3)N12
    -11%	-11%
COC(=O)c1sccc1NC(=O)c1ccc(OC)cc1OC
    -9%	-3%
O=C(CN1CCN(S(=O)(=O)N2CCCCC2)CC1)Nc1cc(Cl)cc(Cl)c1
    ?	-22%
CCCNC(=O)Nc1ccccc1C(=O)Nc1ccc(OC)cc1
    -16%	-5%
CCCCN1C(=O)C(=O)c2cc(Cl)ccc21
    -2%	-17%
COc1ccc(CCNC(=O)CSc2nccc(=O)[nH]2)cc1OC
    -2%	-9%
Cc1ccc(-n2nc(CO)c(C(=O)NCc3cccs3)n2)cc1
    -6%	-13%
CCN(CC)CCCNC(=O)c1ccc(Cn2c(=O)[nH]c3cc(OC)c(OC)cc3c2=O)cc1
    -20%	-2%
CC1SCC(=NOCc2c(Cl)cccc2Cl)CS1 (configuration not stated)
    -23%	-9%
C[C@H](NC(=O)c1nc[nH]c1C(=O)NCC(=O)OC(C)(C)C)c1ccccc1
    -5%	-14%
COc1cccc(CNC(=S)Nc2cc(C)cc(C)c2)c1
    i	-6%
Cc1cc(C)n2c(NCc3ccccc3)c(-c3cc4ccccc4o3)nc2n1
    -13%	32%[activator]
CC(=O)c1cccc(Nc2cc(C)nc3nc(-c4ccccc4C)nn23)c1
    -8%	23%
COC(=O)C1=C(c2ccccc2)C[C@@H]2CC[C@H]1N2C(=O)NCc1ccc(F)cc1
    -12%	-10%
COc1cc(Nc2c3c(nc4ccccc24)CCC3)cc(OC)c1OC
    ?	?
CN(C)c1ccc(O)c2c1CC1CC3C(N(C)C)C(=O)C(C(N)=O)=C(O)[C@@]3(O)C(=O)C1=C2O (some centres not stated)
    -15%	?
CC(C)CC1C(=O)N(Cc2cn(Cc3ccco3)nn2)CCS(=O)(=O)N1Cc1ccc(-c2ccc(F)cc2)cc1 (configuration not stated)
    -18%	?
COC(=O)C1=CN(C(C)c2ccccc2)C=C(C(=O)OC)C1c1cc(OC)c(OC)c(OC)c1 (configuration not stated)
    26%	-2%
Cc1cccc(-c2cnc(C(O)c3ccc(Cl)cc3C)[nH]2)c1 (configuration not stated)
    14%	-9%
O=C(CSc1nnc(-c2ccccc2)o1)c1nnc(-c2ccccc2)o1
    /	-26%
CCc1ccccc1Nc1nc2ccccc2n1C
    ?	-14%
Cc1ccc(C(=O)CCC(=O)OCC(=O)Nc2nnc(-c3ccccc3)o2)cc1
    -3%	1%
COC(=O)c1cccc(NC(=O)CN2CCN(Cc3ccccc3)CC2)c1
    /	-17%
Clc1cccc(CNc2ncnc3c2nc2n3CCCC2)c1
    -6%	-11%
CCOC(=O)c1c(NC(=O)CSc2cn(CCNC(=O)c3ccc(OCC)cc3)c3ccccc23)sc2c1CCCC2
    1%	-10%
COc1cc(C(C(=O)NC2CCCCC2)N(C(=O)c2cnccn2)c2ccccc2)cc(OC)c1OC (configuration not stated)
    1%	-7%
O=C(CN(C1CCCCC1)S(=O)(=O)c1ccc(F)cc1)NC1CC1
    -7%	-11%
O=C(O)CSCC(=O)Nc1ccc(C2CCCCC2)cc1
    -7%	-10%
COc1ccc(O)c(CN2CCCC(N3CCN(c4ccccc4OC)CC3)C2)c1 (configuration not stated)
    -5%	-11%
Cc1sc2nc(C3CC3)nc(NCCNS(C)(=O)=O)c2c1C
    -8%	-19%
Nc1nc(NCCCN2CCOCC2)nc(NCc2ccccc2)c1[N+](=O)[O-]
    -24%	-28%
NCCCCNCCCN
    -9%	0%&-12%
COCc1cc(C)nc(SCC(=O)Nc2ccc3c(c2)n(C)c(=O)n3C)c1C#N
    -11%	-11%
C[C@@H](NC(=O)C1(c2ccccc2)CCN(C(=O)OC(C)(C)C)CC1)C(=O)N[C@@H](C(=O)O)c1ccccc1
    14%	26%
O=C(CC(c1ccccc1)c1ccccc1O)N1CCCC1 (configuration not stated)
    -14%[1.46 µM]	-14%
COc1ccc2oc(=O)c(-c3csc(Nc4cccc(O)c4)n3)cc2c1
    ?	?
CC(=O)c1cn(CC(=O)Nc2ccccc2C)c2ccccc12
    /	?
CCCNC(=S)N1CCC(C(=O)c2ccc(F)cc2)CC1
    i	-13%
Cc1c(CC(=O)O)c(=O)oc2cc(OCc3ccc(Cl)cc3)ccc12
    -12%	0%
O=C(COc1ccccc1Cl)Nc1ccc2c(c1)C(=O)NC2=O
    -2%	-14%
COCC(=O)O[C@]1(CCN(C)CCCc2nc3ccccc3[nH]2)CCc2cc(F)ccc2[C@@H]1C(C)C
    -17%	?
CCOC(=O)CSc1nnc(NC(=O)c2cccc([N+](=O)[O-])c2C)s1
    -16%	-5%
CCOC(=O)c1nc2cc3n(c(C)c-2c1C)C(C)C(CC)=C3C (configuration not stated)
    -21%	-15%
COc1ccc(CNC(=O)COc2ccc(S(=O)(=O)N3CCCCC3)cc2Cl)cc1
    -12%	-20%
Cc1nn(CC(=O)Nc2ccc3c(c2)nc2n3CCN(C3CCCCC3)C2)c(=O)c2ccccc12
    -15%	-7%
COc1ccc2c(c1OC)C(=O)N(c1ccccn1)C2
    /	-3%
Cc1cccc(-c2nc(CN3CCCC(C(=O)NCCc4ccc(Cl)cc4)C3)c(C)o2)c1 (configuration not stated)
    -12%	-20%
Nc1ccc(S(=O)(=O)NCC(=O)OC2CCOC2=O)cc1[N+](=O)[O-] (configuration not stated)
    -14%	0%
O=C(CCc1ccccc1)NNC(=O)c1ccc(Br)cc1
    0%	-15%
CN(C(=O)CSc1nc(-c2ccccc2)cn1N)C(c1ccccc1)c1ccccc1
    -10%	-24%
N#Cc1ccccc1Oc1ccc(S(=O)(=O)N2CCCCC2)cn1
    -8%	-9%
COc1ccc([C@H]2CC(=O)C=C(c3cccc(CO)c3)C2)cc1
    -15%	-7%
CN1C(C)(C)CC(O)(C(=O)O)CC1(C)C
    1%	-3%
CCOC(=O)c1cnc2ccc(C(=O)OC)cc2c1Nc1ccc(N2CCOCC2)cc1
    -11%	-5%
OC(c1ccc(Cl)c(F)c1)c1ncc(-c2cccc3ccccc23)[nH]1 (configuration not stated)
    4%	14%
COc1ccccc1N(CC(=O)N1CCCCCC1)S(C)(=O)=O
    3%	6%
O=C(Nc1ccccc1)c1ccc(CN2CCc3ccccc3C2)cc1
    i	-6%
N#CSC(c1ccccc1)c1nc2ccccc2[nH]c1=O (configuration not stated)
    ?	-27%
COc1ccc(Nc2nnc(SC(C)C(=O)NC3CC3)s2)cc1 (configuration not stated)
    -6%	-6%
COc1ccc(-c2nnnn2-c2ccc(F)cc2F)cc1
    i	-9%

Additional entries follow.
Results follow in this order: VACV mCherry inh	VACV Venus inh
Cc1ccc(S(=O)(=O)N2CCOCC2)cc1NC(=O)COC(=O)c1ccccc1OCc1c(C)noc1C
    -8%	-11%
CCOC(=O)/C(C#N)=C/c1cc2ccc(C)cc2nc1Cl
    i	-12%
O=C1N[C@@H](Cc2ccccc2)C(=O)N2[C@@H]3N(S(=O)(=O)c4ccccc4)c4ccccc4[C@]3(Br)C[C@@H]12
    ?	?
Cc1ccc(S(=O)(=O)Nc2ccccc2C(C(=O)OC(C)(C)C)C(=O)OC(C)(C)C)cc1
    -12%	-3%
CC1(C2CC2)NC(=O)N(CC(=O)N2CCN(c3ccc(F)cc3)CC2)C1=O (configuration not stated)
    i	-9%
Cc1ccc(CNC(=O)CCc2c(C)nc3nc(C)nn3c2C)cc1
    -6%	-9%
O=S(=O)(c1ccccc1)N(CC(O)COc1ccccc1)c1ccccc1 (configuration not stated)
    -15%	-15%
CCOc1ccc(C(=O)N2CCN(Cc3cc(=O)n4nc(-c5ccccc5Cl)sc4n3)CC2)cc1
    -13%	-11%
O=C(CCc1ccc(CCC(=O)c2cccs2)s1)c1cccs1
    i	-11%
C=CCN(C(=O)c1csnn1)C(C(=O)NC1CCCCC1)c1ccccc1F (configuration not stated)
    -7%	2%
CN1N=C(C(C)(C)C)CC1=O
    -2%	2%
CCc1ccccc1NC(=O)c1ccc(-c2csc(C)n2)cc1
    i	-19%
C[C@@H](NC(=O)c1nc[nH]c1C(=O)N[C@@H](Cc1ccccc1)C(=O)OC(C)(C)C)c1ccccc1
    -1%	?
CC1Oc2ccccc2C=C1/C=N/NC(=O)c1ccncc1 (configuration not stated)
    -6%	-19%
Cc1cn2c(=O)c(S(=O)(=O)NCCc3ccccc3)c(C)nc2s1
    -10%	-11%
COc1cc2c(cc1OC)C1Cc3ccc(OC)c(OC)c3C[N+]1([O-])CC2 (configuration not stated)
    i	-10%
Cc1cc(O)c(NC(=O)c2ccco2)cc1C
    -8%	-5%
O=C(/C=C/c1ccc(F)cc1)NC(=S)N1CCOCC1
    i	12%
CC1CCCC(C)N1C(=C(Cl)Cl)C(=C1SCCS1)[N+](=O)[O-] (configuration not stated)
    -6%	-1%
COc1cc(=O)n(C)c2cc(N(C)C)ccc12
    -21%	-18%
CCN1CCCC1CNS(=O)(=O)c1cccc(C(F)(F)F)c1 (configuration not stated)
    i	-2%
CC(=O)c1ccc(N2C(=O)N(Cc3ccc(F)cc3)c3ccccc3S2(=O)=O)cc1
    -17%	-12%
COc1ccc(C(=O)Nc2c(N)nc(SCC(=O)Nc3ccc(C(C)=O)cc3)[nH]c2=O)cc1
    -7%	-3%
COc1cc2nc(CN(C)Cc3ccc(C(C)(C)C)cc3)[nH]c(=O)c2cc1OC
    -6%	-24%
O=C(Nc1nc2ccccc2n1CCN1CCCC1)C1CCCCC1
    -16%	-17%
CCC(O)(C(=O)Nc1ccccc1C(F)(F)F)c1ccccc1OC (configuration not stated)
    i	-23%
CC(=O)c1ccc(F)c(-c2cc(C)cc3c2OC(CNC(=O)C2CCCCN2C)C3)c1 (configuration not stated)
    -21%	-7%
O=C(N/N=C/c1ccncc1)c1cc([N+](=O)[O-])cc([N+](=O)[O-])c1
    -14%	-9%
COc1ccc(Cl)cc1S(=O)(=O)N1CCC(c2ccncc2)CC1
    -18%	-14%
CCOC(=O)c1cnn(CCOC(=O)C2CC2)c1NC(=O)C1CC1
    -10%	0%

Profiles from above:
CN1N=C(C(C)(C)C)CC1=O as listed: VACV mCherry inh = -2%; VACV Venus inh = 2%
O=C1N[C@@H](Cc2ccccc2)C(=O)N2[C@@H]3N(S(=O)(=O)c4ccccc4)c4ccccc4[C@]3(Br)C[C@@H]12 as listed: VACV mCherry inh = ?; VACV Venus inh = ?
Cc1ccc(CNC(=O)CCc2c(C)nc3nc(C)nn3c2C)cc1 as listed: VACV mCherry inh = -6%; VACV Venus inh = -9%

Later entries:
Results follow in this order: VACV mCherry inh	VACV Venus inh
Cc1ccc2c(COC(=O)c3ccccc3OC(F)F)cc(=O)oc2c1
    21%	0%
CCOc1ccc(CCNC(=O)c2cnc3sc(N4CCOCC4)nn3c2=O)cc1
    -8%	-14%
O=C(O)COc1ccc2c(c1)CCCC2
    -9%	-4%
COc1cc(/C(C)=N/NC(=O)CSc2nnc(C)s2)ccc1O
    ?	?
Fc1ccc(NC(=S)N2Cc3ccccc3-n3nncc3C2)cc1
    i	-3%
O=C(Nc1nnc(-c2ccc(Br)cc2)o1)c1ccco1
    i	-21%
CCN1CCN(C(=O)c2ccc(N3CC4CC(C3)c3cccc(=O)n3C4)c([N+](=O)[O-])c2)CC1 (configuration not stated)
    i	7%
Cc1ccc(NC(=O)N(Cc2ccco2)C(C)c2ccco2)cc1C (configuration not stated)
    -18%	-13%
CCOC(=O)c1c(C)[nH]c(=S)c(C#N)c1-c1ccc(Cl)cc1
    i	2%
C=C1CCC[C@]2(C)C[C@H]3OC(=O)C(CNCC(OC)OC)[C@H]3CC12 (some centres not stated)
    4.5µM*	?
O=C(Nc1cccc2c1CCCC2)c1cccc(F)c1
    i	-7%
Cc1ccn2c(Nc3ccccc3)c(-c3c[nH]c4ccccc34)nc2c1
    -7%	-7%
O=C(COc1ccc(Cl)cc1)OCC(=O)N1CCCc2ccccc21
    -13%	-2%
O=C(NC1CCCC1)c1cc(-c2ccccc2)on1
    -22%	-15%
CCCCCn1nnnc1-c1nc2cc(C)c(C)cc2[nH]c1=O
    i	-12%
O=C(O)CCNC(=O)c1cncc(Br)c1
    -5%	-2%
Fc1ccc(-c2noc(-c3ccc4c(c3)CCO4)n2)cc1
    i	-6%
COc1ccc(-c2cc(CNS(=O)(=O)c3ccc(NC(C)=O)cc3)on2)cc1
    i	1%
CCC1(C)Cc2sc3c(=O)[nH]c(=S)[nH]c3c2CO1 (configuration not stated)
    13%	3%
O=[N+]([O-])c1ccccc1OC/C(=N\O)c1ccccc1
    -3%	-11%
Cc1noc(C)c1NC(=O)Nc1ccc2c(c1)C(=O)N([C@H](C)CO)C[C@H](C)[C@@H](CN(C)C(=O)NC(C)C)O2
    -9%	-4%
CS(=O)(=O)N(CC(=O)N1CCN(Cc2ccc3c(c2)OCO3)CC1)c1ccc2c(c1)OCO2
    i	0%

Screening data as filed in PubChem.
